Cruzain Triton: blocks cruzain activity in presence of Triton detergent; P25779; purified cruzain, Z-FR-AMC fluorescence, 0.01% Triton; Potency, µM, for inactives: max response, negative = inhibition, usual class: inhibitors; 200,000 compounds, 0.43% hits;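 also: plate controls were neutral wells for no effect and buffer without enzyme for full effect; nearly all actives have a fitted effect of over 40% in size; top concentration of the series not given in the record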
Target sequence (P25779 123-467 limits assumed): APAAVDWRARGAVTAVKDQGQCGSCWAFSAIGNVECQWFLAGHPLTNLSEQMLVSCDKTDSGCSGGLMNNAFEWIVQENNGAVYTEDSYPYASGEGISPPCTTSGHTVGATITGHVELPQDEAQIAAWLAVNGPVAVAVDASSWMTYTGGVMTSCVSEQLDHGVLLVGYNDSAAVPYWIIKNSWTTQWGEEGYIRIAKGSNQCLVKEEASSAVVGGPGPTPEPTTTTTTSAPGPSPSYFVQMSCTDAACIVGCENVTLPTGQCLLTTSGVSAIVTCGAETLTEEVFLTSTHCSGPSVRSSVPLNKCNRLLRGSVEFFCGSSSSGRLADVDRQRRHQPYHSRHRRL
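In this qHTS format, compounds are incubated with 1.5 nM cruzain for 15 min at room temperature before 2 uM Z-FR-AMC is added. Release of AMC is followed at 360/450 nm, and progress is taken as the 60 s fluorescence difference.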
Cruzain noTriton: inhibitors of Trypanosoma cruzi cruzain without detergent. P25779. purified cruzain, Z-FR-AMC fluorescence, no detergent. Potency, µM, for the others: max response, negative = inhibition, usual class: inhibitors. 200,000 compounds, 2.3% hits. AID 1476;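 also: plate controls were enzyme without inhibitor for no effect and buffer without enzyme for full effect; nearly all actives have a fitted effect of over 40% in size; top concentration of the series not given in the record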
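Detergent-free condition (0.00005% Triton X-100) in acetate buffer pH 5.5 with DTT. 1.5 nM enzyme and compound were pre-mixed 15 min, then 2 uM Z-FR-AMC substrate added; reaction progress from fluorescence change between first and third reads (60 s).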
NS1 function inh: influenza NS1 inhibition; 270,000 compounds, 0.4% hits; Potency, µM (titrated, usually from 46.1 µM), inactives show top-dose activity, positive = more growth; S. cerevisiae slowed by influenza A NS1, growth recovery by OD600; active means well fitted rising curve with a large enough effect; inconclusive means small, poorly fitted or top-dose-only effect; inactive means no such curve, though single readings can be large or run the other way; also: nearly all actives have a fitted effect of over 50% in size
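S. cerevisiae expressing influenza A NS1, grown in glucose, washed, then diluted 1:100 into pH 6.0 -URA galactose medium with 23 nl compound. Growth recovery read as OD600; NS1-free strain serves as control.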
MARV entry inh: inhibitors of Marburg virus binding or cell entry; 300,000 compounds, 1.8% hits; Marburg virus pseudotyped entry inhibition, cell reporter; control for the full effect not named in the record; about a third of the inactives were read at about 46 µM; AID 540276; Potency, µM (top dose mostly 37.8 µM), inactives show at the highest dose activity change, negative = inhibition, usual class: inhibitors; active = well fitted inhibition curve with a large enough effect; inconclusive = small, poorly fitted or top-dose-only effect, or effect the other way; inactive = flat fitted curve, though single readings scatter; tested in HEK293 cells; about a fifth of its hits are not listed in these tables; also: % is scaled to controls: 0 for no effect and ±100 for the full control effect; luciferase read-out
SARS PLP yeast: blocks SARS-CoV papain-like protease in a yeast assay | S. cerevisiae expressing SARS-CoV PLpro, growth rescue; control for the full effect not named in the record | Potency, µM (highest dose often 32.9 µM), without a hit: top-dose activity, positive = growth rescue | 330,000 compounds, 0.19% hits; active means well fitted rising curve with a large enough effect; inconclusive means small, poorly fitted or top-dose-only effect; inactive means no such curve, though single readings can be large or run the other way; also: 0% is about no effect; nearly all actives have a fitted effect of over 55% in size; growth read by luminescence after 48 h
Lassa entry inh: blocks Lassa virus binding to or entry into cells; Lassa virus pseudotype entry inhibition, cell reporter; control for the full effect not named in the record; Potency, µM (highest dose often 37.9 µM), for inactives: at the highest dose activity change, negative = inhibition, hits mostly inhibitors; 300,000 compounds, 1.2% hits; AID 540256; active means well fitted inhibition curve with a large enough effect; inconclusive means small, poorly fitted or top-dose-only effect, or effect the other way; inactive means flat fitted curve, though single readings scatter; tested in HEK293 cells; also: % is scaled to controls: 0 for no effect and ±100 for the full control effect; nearly all actives have a fitted effect of over 50% in size; luciferase read-out
StopGo reporter: FMDV 2A StopGo reporter, luciferase signal; human cells with a luciferase reporter of 2A StopGo recoding; control for the full effect not named in the record; Potency, µM (highest dose often 57.9 µM), for inactives: top-dose signal change, negative = less light; 410,000 compounds, 1.2% hits; active = well fitted falling curve with a large enough effect; inconclusive = small, poorly fitted or top-dose-only effect; inactive = no such curve, though single readings can be large or run the other way; tested in HEK293T cells; also: % is scaled to controls: 0 for no effect and ±100 for the full control effect; nearly all actives have a fitted effect of over 45% in size; luciferase light after 4 h
RE007 growth inh: less growth of the S. pombe RE007 Vpr strain. S. pombe RE007 Vpr strain, BacTiter-Glo ATP luminescence, 24 h; control for the full effect not named in the record. Potency, µM (titrated, usually from 92.2 µM), inactives show at the highest dose activity change, negative = less growth. 360,000 compounds, 0.21% hits; active = well fitted falling curve with a large enough effect; inconclusive = small, poorly fitted or top-dose-only effect; inactive = no such curve, though single readings can be large or run the other way;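 also: % is scaled to controls: 0 for no effect and ±100 for the full control effect; nearly all actives have a fitted effect of over 50% in size; the assay follows cell death caused by Vpr and the record does not say whether a fall means rescue or toxicity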
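Fission yeast strain RE007, carrying one chromosomally integrated HIV-1 vpr copy, was seeded at OD 0.01 in PMG+AL medium with 23 nL pinned compound. After 24 h at 30 °C and 99% humidity, viability was read by BacTiter-Glo luminescence.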
Active calls of the source: *; u = inconclusive; x = not tested or not shown; & = joins results of further samples; [ ] = dose if it differs, or a comment. Unless noted, calls follow the shape of the dose curve; as a rule, active = well fitted curve in the direction sought with a large enough effect; inconclusive = small, poorly fitted or top-dose-only effect, or another doubt; inactive = no such curve, though single readings can be large; an effect the other way counts as inactive or inconclusive. Potency is read from the fitted curve at half-maximal effect. Outcome played no part in choosing rows. About 4.7% of those tested had a hit in this group.

SMILES	Cruzain Triton	Cruzain noTriton	NS1 function inh	MARV entry inh	SARS PLP yeast	Lassa entry inh	StopGo reporter	RE007 growth inh
CCN(CC)S(=O)(=O)c1cccc(-c2n[nH]c(=S)n2/N=C/c2ccc(OC(F)F)cc2)c1	-7.9%	-4%	21%	24%	4%	-18%	0%	1%
Cc1cc(C)cc(Oc2ccc(S(=O)(=O)N3CCN(C)CC3)cn2)c1	x	x	x	2%	-2%	-2%	-5%	-9%
COc1cc2ccnc(Cc3cccc(OC)c3OC)c2cc1OC	x	x	-3%	20%[46.1 µM]	0%	x	u	-21%
CCOC(=O)c1c(C)[nH]c(C(=O)COC(=O)c2ccccn2)c1C	2.0%	-10%	-8%	16%	-1%	8%	0%	8%
CCC(C)c1ccc(NC(=S)NC(C)C2CCCO2)cc1 (stereo unspecified)	x	x	-10%	x	1%	x	34%[activator]	6%
COCCn1c(-c2ccccc2)c(C)n2c3c(=O)n(C)c(=O)n(C)c3nc12	-1.3%	-6%	x	u	x	-27%[46.1 µM]	3.2µM*	x
O=C(c1ccccc1)c1nc[nH]c1C(=O)Nc1ccccc1	-1.2%	-3%	-2%	-26%	-2%	u	4%	6%
NC(=O)CSc1nnc(-c2ccccc2)c(-c2ccccc2)n1	x	x	-4%	x	0%	x	-7%	3%
O=C1c2ccncc2C(=O)N1Cc1cccc(Cl)c1	-2.8%	-11%	9%	4%	4%	-3%	-23%	3%
COc1ccc(OCC(=O)Nc2ccc3c(c2)nc2n3CCSC2)cc1	-0.5%	-15%	-3%	16%	-4%	-1%	-13%	-15%
O=C(Nc1ccc(C(=O)N2CCCCC2)cc1)c1cccs1	x	x	4%	18%[46.1 µM]	-4%	14%	55%[activator]	u
COc1cc(CCC(=O)Nc2ncc(C)s2)cc(OC)c1OC	x	x	-4%	10%[46.1 µM]	4%	-2%[46.1 µM]	-2%	-14%
COc1cccc(C(=O)O/N=C(\C)c2cnccn2)c1	x	x	-33%	-1%[46.1 µM]	0%	22%[46.1 µM]	0%	-28%
CCCOC(=O)C1C2C=C[C@]3(CN(CCc4ccccc4)C(=O)[C@H]13)O2 (stereo partly specified)	-3.1%	13%	8%	-19%	-3%	13%	10%	-10%
CC1Cc2ccccc2N1C(=O)CSc1nnc(-c2ccc(S(=O)(=O)N3CCCC3)cc2)n1C (stereo unspecified)	-3.8%	u	8%	-15%	6%	2%	-5%	-17%
COc1ccccc1N1CCN(C(CNC(=O)c2ccc3c(c2)OCO3)c2cccnc2)CC1 (stereo unspecified)	-1.1%	-8%	-14%	-29%&-29%	-11%	21%	-30%	20%
O=C(Nc1ccon1)c1sc2ccccc2c1Cl	-2.7%	u	2%	u	1%	u	45%[activator]	u
Cc1ccc(S(=O)(=O)c2cn(Cc3ccccc3F)c3cc4c(cc3c2=O)OCO4)cc1	-2.6%	-1%	x	u	x	-2%[46.1 µM]	48%	x
CCC(CC)COC(=O)C1=C(C)NC(=O)NC1c1ccc([N+](=O)[O-])cc1 (stereo unspecified)	x	x	15%	x	7%	x	-16%	3%
Cc1cccc2cc(COC(=O)C(C)(C)C)c(=O)[nH]c12	0.1%	0%	0%	14%	-6%	17%	24%	1%

Next section; the last seven above are carried over.
SMILES	Cruzain Triton	Cruzain noTriton	NS1 function inh	MARV entry inh	SARS PLP yeast	Lassa entry inh	StopGo reporter	RE007 growth inh
CCCOC(=O)C1C2C=C[C@]3(CN(CCc4ccccc4)C(=O)[C@H]13)O2 (stereo partly specified)	-3.1%	13%	8%	-19%	-3%	13%	10%	-10%
CC1Cc2ccccc2N1C(=O)CSc1nnc(-c2ccc(S(=O)(=O)N3CCCC3)cc2)n1C (stereo unspecified)	-3.8%	u	8%	-15%	6%	2%	-5%	-17%
COc1ccccc1N1CCN(C(CNC(=O)c2ccc3c(c2)OCO3)c2cccnc2)CC1 (stereo unspecified)	-1.1%	-8%	-14%	-29%&-29%	-11%	21%	-30%	20%
O=C(Nc1ccon1)c1sc2ccccc2c1Cl	-2.7%	u	2%	u	1%	u	45%[activator]	u
Cc1ccc(S(=O)(=O)c2cn(Cc3ccccc3F)c3cc4c(cc3c2=O)OCO4)cc1	-2.6%	-1%	x	u	x	-2%[46.1 µM]	48%	x
CCC(CC)COC(=O)C1=C(C)NC(=O)NC1c1ccc([N+](=O)[O-])cc1 (stereo unspecified)	x	x	15%	x	7%	x	-16%	3%
Cc1cccc2cc(COC(=O)C(C)(C)C)c(=O)[nH]c12	0.1%	0%	0%	14%	-6%	17%	24%	1%
COc1ccc(N(CC(=O)Nc2ccccc2SC)S(C)(=O)=O)cc1OC	4.4%	3%	-22%	-1%	5%	3%	-6%	-8%[3.69 µM]
Cc1cc(C)cc(NC(=O)COc2cccc3c(=O)n(C)ccc23)c1	-8.0%	18%	x	x	x	-4%[46.1 µM]	u	x
CC(C)(C)c1ccc(C(=O)Nc2ccc(CN3CCS(=O)(=O)CC3)cc2)cc1	x	x	-1%	u	0%	u	u	2%
O=c1cc(/C=C/c2c(F)cccc2Cl)[nH]c2ccccc12	-11%	-28%	-12%	20%	-12%	0%	22%	0%
COc1ccc([C@H]2C=C3CN(C(=O)OC(C)(C)C)S(=O)(=O)[C@H]3C[C@H]2OC(=O)c2ccc(C(F)(F)F)cc2)cc1	x	x	u	x	1%	x	2%	10%
Nc1nonc1C(=O)NCCNc1ccc([N+](=O)[O-])cn1	x	x	x	13%[46.1 µM]	6%	-11%	-8%	7%
COc1ccccc1-c1nnc(C2CCN(C(=O)c3ccc(Cl)cc3)CC2)o1	-0.3%	-8%	x	5%[46.1 µM]	x	u	10%	x
CCCCn1c(=O)[nH]c(=O)c2c1nc(-c1ccccn1)n2CC	x	x	-7%	0%[46.1 µM]	2%	u	1%	-17%
COc1cccc(N2C(=O)CC(N3CCc4ccccc43)C2=O)c1 (stereo unspecified)	1.1%	-10%	8%	-3%	-13%	17%	51%[activator]	-18%
CCOc1cc2[nH]c(=O)n(CC3CCC(C(=O)NCCC(C)C)CC3)c(=O)c2cc1OCC (stereo unspecified)	x	x	8%	12%[46.1 µM]	x	-16%[46.1 µM]	-6%	-8%
Cc1cc(C)cc(NC(=O)CSc2nnc(CNC(=O)c3ccco3)n2C)c1	x	x	x	u	-9%	9%	-6%	-4%
COC(=O)c1cc2sccc2n1CC(=O)Nc1ccc(C)cc1C	-2.5%	-21%	x	-3%[46.1 µM]	x	x	-1%	x
COC(=O)c1ccccc1NC(=O)c1ccccc1SC	0.6%	4%	-5%	-3%	-19%	0%	-1%	-25%
CCOC(=O)NC(NC(=S)Nc1ccc(OC)cc1)C(Cl)(Cl)Cl (stereo unspecified)	-21%	-1%	2%	u	-14%	u	-13%	9%
OC1(c2ccc(F)cc2)CC2CCC(C1)N2Cc1nnnn1C1CCCCC1 (stereo unspecified)	7.0%	17%	-13%	u	0%	-1%	-23%	-2%
CCCCCCCCCCS(=O)(=O)N/N=C/c1ccccc1OC	-7.8%	-4%	-23%	1%	-14%	4%	-2%	82%
COc1cccc(CN(C)C(=S)Nc2ccc(C)c(C)c2)c1	x	x	x	u	2%	u	-18%	-4%
CCNC(=O)/C(=C\C=C\c1ccccc1)NC(=O)c1ccc(Br)o1	-8.0%	-8%	-3%	28%	16%	0%	12%	2%
CCC(Sc1nc2ncccc2[nH]1)C(=O)NC1CCCC1 (stereo unspecified)	x	x	-7%	x	-5%	x	-10%	-12%
O=C1NC(c2ccccc2)=NC1(NS(=O)(=O)c1ccc(Cl)cc1)C(F)(F)F (stereo unspecified)	-1.4%	-10%	3%	19%	14%	3%	-24%	x

Three entries from above, with two lines to a compound:
Results follow in this order: Cruzain Triton	Cruzain noTriton	NS1 function inh	MARV entry inh	SARS PLP yeast	Lassa entry inh	StopGo reporter	RE007 growth inh
- CC1Cc2ccccc2N1C(=O)CSc1nnc(-c2ccc(S(=O)(=O)N3CCCC3)cc2)n1C (stereo unspecified)
  -3.8%	u	8%	-15%	6%	2%	-5%	-17%
- COc1ccccc1N1CCN(C(CNC(=O)c2ccc3c(c2)OCO3)c2cccnc2)CC1 (stereo unspecified)
  -1.1%	-8%	-14%	-29%&-29%	-11%	21%	-30%	20%
- O=C(Nc1ccon1)c1sc2ccccc2c1Cl
  -2.7%	u	2%	u	1%	u	45%[activator]	u

The main list resumes, starting 2 compounds before the break.
SMILES	Cruzain Triton	Cruzain noTriton	NS1 function inh	MARV entry inh	SARS PLP yeast	Lassa entry inh	StopGo reporter	RE007 growth inh
CCC(Sc1nc2ncccc2[nH]1)C(=O)NC1CCCC1 (stereo unspecified)	x	x	-7%	x	-5%	x	-10%	-12%
O=C1NC(c2ccccc2)=NC1(NS(=O)(=O)c1ccc(Cl)cc1)C(F)(F)F (stereo unspecified)	-1.4%	-10%	3%	19%	14%	3%	-24%	x
COc1ccc(CN2CCNC(=O)C2CC(=O)N2CCc3ccccc3C2)c(OC)c1 (stereo unspecified)	x	x	2%	-12%[46.1 µM]	1%	0%	6%	8%
CCc1ccc(NC(=O)C(C)OC(=O)/C=C/c2cccc([N+](=O)[O-])c2)cc1 (stereo unspecified)	-2.1%	u	6%	32%	0%	19%	-12%	-2%
COc1ccc(NC(=O)C2CCCN2S(=O)(=O)c2ccc(F)cc2)cc1 (stereo unspecified)	1.0%	-2%	1%	x	2%	x	-5%	5%
c1cc2c3c(cccc3c1)C(N1CCOCC1)=N2	x	x	-3%	19%[14.2 µM]	3%	u	-17%	-7%
O=[N+]([O-])c1ccc(N2CCCC2)c2ccncc12	x	x	0%	x	-8%	x	-18%	-15%
COc1ccc(S(=O)(=O)N2CCOCC2)cc1NC(=O)CSc1ccccc1	x	x	7%	-15%	3%	0%	17%	0%
CCc1ccc(CNC(=O)C2CCN(C(=O)c3ccc(-n4ccc5ccccc54)s3)CC2)cc1	-3.7%	10%	x	x	x	u	-20%	x
Fc1cccc(Nc2nc3ccccc3n3cnnc23)c1	x	x	-3%	x	1%	x	0%	-8%
